Screening results as filed in PubChem.
RecA splice inh – Mtb RecA intein splicing inhibitors, primary screen, biochemical, fluorescence, HTS; Protein RecA (Mycobacterium tuberculosis (strain ATCC 25618 / H37Rv)), P9WHJ3; inhibition, %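 (about 9 µM by stock and volumes)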; AID 2221, 2009; cell-free RecA intein splicing; 290,000 compounds, 0.75% hits; in the data active means inhibition above about 30%; inconclusive means no clear call, values can overlap the other calls;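 further: 0% = vehicle wells and 100% = reference inhibitor control wells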
Target sequence (P9WHJ3 whole entry, looked up, canonical isoform): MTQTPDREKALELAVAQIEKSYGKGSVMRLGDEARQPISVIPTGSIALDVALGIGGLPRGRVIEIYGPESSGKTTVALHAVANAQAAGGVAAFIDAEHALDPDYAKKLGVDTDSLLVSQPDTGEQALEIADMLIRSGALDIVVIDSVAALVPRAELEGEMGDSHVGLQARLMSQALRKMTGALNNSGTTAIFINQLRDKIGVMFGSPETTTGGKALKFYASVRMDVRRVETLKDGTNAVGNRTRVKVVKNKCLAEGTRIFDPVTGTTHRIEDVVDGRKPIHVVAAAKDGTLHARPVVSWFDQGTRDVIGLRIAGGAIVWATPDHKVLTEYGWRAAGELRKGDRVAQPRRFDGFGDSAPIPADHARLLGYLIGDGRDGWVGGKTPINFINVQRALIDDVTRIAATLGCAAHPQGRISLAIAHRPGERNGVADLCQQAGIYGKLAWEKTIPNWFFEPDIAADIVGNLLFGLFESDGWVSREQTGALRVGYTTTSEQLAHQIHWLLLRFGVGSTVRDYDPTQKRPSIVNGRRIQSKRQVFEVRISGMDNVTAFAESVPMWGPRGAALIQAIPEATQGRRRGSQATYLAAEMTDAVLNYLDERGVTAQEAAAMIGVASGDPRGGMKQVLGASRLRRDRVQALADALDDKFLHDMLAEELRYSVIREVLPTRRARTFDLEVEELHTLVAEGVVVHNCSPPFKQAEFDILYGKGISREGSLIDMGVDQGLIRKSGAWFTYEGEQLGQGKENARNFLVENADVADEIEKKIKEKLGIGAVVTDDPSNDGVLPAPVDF
Mtb growth – M. tuberculosis H37Rv growth inhibitors, H37Rv strain (AID 1626) | M. tuberculosis H37Rv growth inhibition; higher % means a stronger effect | inhibition, % at 10 µM, or IC50 in µM where a hit was titrated | 220,000 compounds, 0.95% hits;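 active means confirmed in a dose series; inconclusive means inhibition above 80% but not taken into the dose series; inactive means below 80% or under 30% at every dose of the series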;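 further: bacteria incubated seven days before Alamar blue readout; 0% = bacteria only wells and 100% = bacteria with antibiotic wells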
Mtb betalactam – beta-lactam sensitization of Mtb H37Rv, H37Rv. inhibition, % at 25 µM. 330,000 compounds, 0.27% hits. AID 434955, 2010. M. tuberculosis H37Rv growth with meropenem, percent inhibition; hits of this screen are not shown here;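 active means about 74% or more and at least 40 points above the plate without the antibiotic, then above 30% in a dose series; inconclusive means first-round hits that could not be retested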;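 further: growth measured after seven days incubation then overnight dye step; 0% = bacteria only wells and 100% = bacteria with antibiotic; twin plates without the antibiotic show which effects depend on it; some results filed as inactive read as strong as hits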
Arbovirus inh – antivirals against arbovirus infection, primary screen, cell-based, full library, 10K replicate subset; AID 1251, 2008; inhibition, % at 10 µM; arbovirus infection cell-based antiviral screen; 200,000 compounds, 0.37% hits;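 active means inhibition from about 30%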;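 further: bluetongue infection of BSR cells; cell survival read as ATP light after 72 h; 0% = infected wells without compound and 100% = uninfected wells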
YopH PTP inh – YopH tyrosine phosphatase inhibitors, primary screen, biochemical, fluorescence Ex485/Em525 | YopH tyrosine phosphatase [Yersinia enterocolitica] | inhibition, %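 (about 10 µM by stock and volumes)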 | 140,000 compounds, 0.16% hits | AID 898, 2007;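 active means inhibition of 50% or more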;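 further: controls were vehicle for no effect and minimum signal wells for full effect; inactives centre near -20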
Arbovirus inh repeat – also measured in Arbovirus inh; calls as there; inhibition, %; measured here: 10K subset replicate screen; many hits read low in the repeat;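 first of two repeat runs on a subset; 0% = infected and 100% = uninfected wells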
* = called active by the depositor; u = inconclusive; x = no result given.

SMILES | RecA splice inh | Mtb growth | Mtb betalactam | Arbovirus inh | YopH PTP inh | others
O=C(c1ccc([N+](=O)[O-])cc1)N1CCN(C(=O)C2CCCCC2)CC1 | -1.7 | x | -14 | x | x
COc1ccccc1NC(=O)Nc1nnc(CC(=O)Nc2cccc(C)c2)s1 | 0.6 | x | 1 | x | x
NS(=O)(=O)c1ccc(NC(=S)Nc2nn(Cc3ccc(Cl)cc3Cl)cc2Cl)cc1 | 5.9 | -1% | 3 | 16 | -5
COc1cc(C(=O)NCC(=O)OCc2cc(=O)oc3c(C)c(C)ccc23)cc(OC)c1OC | 2.5 | 5% | 5 | 9 | x
CN1C(=O)C(=Cc2ccc(N3CCOCC3)o2)C(=O)N(C)C1=S | -2.5 | 23% | 8 | 5 | x
CC(=O)Nc1ccc(S(=O)(=O)NCc2csc(-c3cccnc3)n2)cc1 | 0.1 | -14% | -10 | 16 | 3
Cc1cccn2c(NC(=O)c3ccccc3F)c(-c3ccccc3)nc12 | -1.0 | x | 77 | x | x
CCn1cc(C(=O)O)c(=O)c2cc(F)c(N3CCN(C(=S)NC(=O)c4cccc(F)c4)CC3)cc21 | -3.8 | 79% | 14 | x | x
CCOc1ccc2c(c1)C(c1ccccc1)=NNC(c1ccccc1)=N2 | -0.6 | 1% | -5 | -1 | 13
Cn1c(=O)n(C)c2cc([N+](=O)[O-])c(N3CCN(S(C)(=O)=O)CC3)cc21 | -1.9 | -3% | -4 | -2 | 18
C=CCNC(=S)N/N=C/c1ccc(C)cc1C | 24 | 71% | 71 | 12 | x
CC(C)(C)c1cc(-c2csc(Nc3ccccc3)[n+]2Cc2ccc(C(=O)O)cc2)cc(C(C)(C)C)c1O | x | 1% | -2 | x | x
C[n+]1ccc(CC2C(=[N+]([O-])[O-])C=Nc3ncnn32)cc1 (stereo not given) | x | -4% | x | 21 | x
O=C(CN1/C(=C(/O)c2ccccc2)C(=O)c2ccccc2S1(=O)=O)c1ccccc1 | 6.7 | -10% | -1 | -15 | -1
C/C(=N/NC(=O)CSc1nc2ccccc2n1C)c1ccco1 | -2.4 | x | -3 | x | x
COC(=O)C1CSc2[nH]c(=O)sc2C1c1ccc(O)c(OC)c1 (stereo not given) | -3.5 | -1% | -7 | 8 | -60
CS(=O)(=O)N(CC(=O)NC1CCCCC1)c1cccc(F)c1 | -5.1 | -6% | 4 | 2 | x
N/C(=N\N=C\c1ccc(Br)o1)c1nonc1N | 1.3 | 5% | -13 | x | x
O=S(=O)(c1ccccc1)N1CCc2ccccc2C1 | -1.3 | x | 0 | x | x
OC(CN1CC=C(/C=C/c2ccc(Br)cc2)CC1)c1ccccc1 (stereo not given) | -0.3 | x | 6 | x | x
OCC(O)CNC(=S)NC1CCCCC1 (stereo not given) | -3.8 | -10% | -3 | 2 | x
O=C(Nc1ccc(S(=O)(=O)NCC2CCCO2)cc1)C1CC(=O)N(c2ccccc2)C1 (stereo not given) | -1.3 | x | 9 | x | x
CCCNC(=S)N1CCC(NC(=O)c2ccc(OC)cc2)CC1 | -0.3 | x | -18 | x | x
COc1ccccc1-n1cc(C(=O)N2CCCC(CO)(Cc3ccccc3C)C2)cn1 (stereo not given) | 1.6 | -8% | -2 | 18 | x
O=C1CC(=O)Nc2cc(S(=O)(=O)N3CCN(c4cccc(C(F)(F)F)c4)CC3)ccc2N1 | 4.7 | 1% | -1 | -7 | x
O=C(CN(C(=O)c1ccc(Cl)cc1Cl)N1C(=O)C2C3C=CC(C3)C2C1=O)c1ccc(F)cc1 (stereo not given) | -0.8 | 2% | -9 | x | -19
Cc1cc(N=Nc2ccccc2C)ccc1N | 6.5 | x | 85 | x | x
C/C(=N\Nc1cccc(Cl)c1)c1ccncc1 | 3.2 | u | 96 | -29 | x
Cn1ccc(=S)c2ccccc21 | 11 | -2% | 3 | 14 | x
COc1cccc(-n2nnnc2SCC(=O)Nc2ccc(OC)cc2OC)c1 | 1.5 | x | -4 | x | x
CCOc1ccc(N2C(=O)CC(N(C)Cc3ccccc3)C2=O)cc1 (stereo not given) | 0.8 | 5% | 6 | 5 | 16
Cc1ccccc1N1CC(C(=O)Nc2nnc(SCCN3CCOCC3)s2)CC1=O (stereo not given) | 0.7 | x | 6 | x | x
CCOc1ccc(CNC(=O)C2CCN(c3nnc(C)c4c(C)n(-c5ccc(C)cc5)nc34)CC2)cc1 | 1.6 | x | 10 | x | x
Clc1ccc(OCCSc2ncccn2)cc1 | 0.3 | 3% | -4 | 10 | -6
CN(CC(=O)NCc1ccncc1)S(=O)(=O)c1ccc(Cl)cc1 | -6.1 | -6% | 12 | 1 | x
CC(C(=O)OCC(=O)Nc1cccc(S(=O)(=O)N(C)C)c1)N1C(=O)c2ccccc2C1=O (stereo not given) | 1.8 | 2% | 5 | 4 | x
COC(=O)c1c(NC(=O)CN2CCC(C(N)=O)CC2)c2c(C)cccc2n1C | -2.7 | -3% | -17 | 0 | -4
Cc1ccc(S(=O)(=O)NNC(=S)Nc2cccc(F)c2)cc1 | -1.3 | -11% | -2 | x | x
COc1ccc(NC(=O)OCCN2CCN(Cc3ccccc3)CCC2=O)cc1 | -1.5 | -5% | -11 | 3 | -11
O=C(CC1Nc2ccccc2NC1=O)NCC1COc2ccccc2O1 (stereo not given) | -1.9 | 1% | -14 | 5 | -50
COc1ccccc1N1CCN(C(=O)c2sc3ncn(CC(=O)N4CCC(C)CC4)c(=O)c3c2C)CC1 | 0.7 | x | -5 | x | x
COc1cc(OC)c2ccc(=O)oc2c1C(CC(=O)N1CCN(c2ccccc2)CC1)c1ccc2c(c1)OCO2 (stereo not given) | 7.8 | 8% | x | x | x
Cc1ccccc1NS(=O)(=O)c1ccc2c(c1)oc(=O)n2C | -0.8 | x | -1 | x | x
CSC1=N/C(=C/c2cccnc2)C(=O)N1Cc1ccccc1 | -7.8 | -17% | -13 | x | x
CC(Sc1nncn1C)C(=O)Nc1nnc(-c2ccccc2)s1 (stereo not given) | -6.0 | -3% | 0 | 8 | -29

Pulled one by one from above (3):
SMILES | RecA splice inh | Mtb growth | Mtb betalactam | Arbovirus inh | YopH PTP inh | others
CS(=O)(=O)N(CC(=O)NC1CCCCC1)c1cccc(F)c1 | -5.1 | -6% | 4 | 2 | x
COc1cc(C(=O)NCC(=O)OCc2cc(=O)oc3c(C)c(C)ccc23)cc(OC)c1OC | 2.5 | 5% | 5 | 9 | x
Clc1ccc(OCCSc2ncccn2)cc1 | 0.3 | 3% | -4 | 10 | -6

Other records follow:
SMILES | RecA splice inh | Mtb growth | Mtb betalactam | Arbovirus inh | YopH PTP inh | others
CC(=O)NC(C)(C)C1CC=C(C)/C(=N\O)C1 (stereo not given) | 1.2 | -7% | 0 | -2 | -61 | Arbovirus inh repeat=1
C/C=C(/C)C(=O)O[C@@H]1c2cc3c(c(OC)c2-c2c(cc(OC)c(OC)c2OC)[C@@H](OC(C)=O)[C@@H](C)[C@H]1C)OCO3 | 0.6 | -3% | -6 | x | x
Cc1cc(C)c(O)c(-c2cc(C(=O)Nc3ccc(S(=O)(=O)N4CCOCC4)cc3)[nH]n2)c1 | 0.0 | 12% | -3 | -26 | -14
COc1ccc(OC)c(NC(=O)CSc2nccn2Cc2ccco2)c1 | 1.3 | x | -6 | x | x
CCOC(=O)N1CCC(N(CCN(C)C)C(=S)Nc2cccc(C)c2)CC1 | -1.2 | 2% | 3 | 6 | -5
Cc1oc(-c2ccccc2Cl)nc1CSc1nc2c(c(=O)[nH]1)CCCC2 | 1.4 | -5% | -9 | x | x
COC(=O)c1cc2cc(Cl)ccc2nc1SC | 2.1 | -2% | -3 | x | x
O=C(c1nc2nc(-c3ccc(Cl)cc3)cc(C(F)(F)F)n2n1)N1CCOCC1 | 1.9 | -4% | -6 | 4 | -27
CCc1cc(C(=O)N2CCN(c3ccccn3)CC2)sc1C | 3.0 | x | -10 | x | x
CCC12CN3CCN(CC(C3)/C1=N\O)C2 | 3.9 | 3% | 3 | -4 | -50
CC(C)Oc1ccc(S(=O)(=O)N2CCCCC2)cc1NC(=O)C1CCC1 | -0.4 | x | -5 | x | x
CC(=O)Nc1nnc(CCS(=O)(=O)c2ccc(Cl)cc2)s1 | x | 2% | x | 4 | x
CCOC(=O)N1CCN(CC(O)COc2ccc(CC)cc2)CC1 (stereo not given) | -2.8 | x | -7 | x | x
Cc1ccccc1NS(=O)(=O)c1cc(C(=O)NCc2ccncc2)ccc1Cl | 0.0 | x | -3 | x | x
Cc1ccc(/C=C/C(=O)O)cc1S(=O)(=O)N1CCCc2ccccc21 | 0.7 | 3% | -3 | x | x
COc1ccc(C(C(=O)NC2CCCCC2)N(C(=O)c2csnn2)C2CC2)cc1 (stereo not given) | 0.3 | x | -5 | x | x
CCN(CC(=O)Nc1ccc([N+](=O)[O-])cc1OC)c1ccccc1 | 0.6 | 4% | 6 | -11 | -37
COc1cc(OC)cc(C(=O)N2CCN(C(=O)c3ccc(OC)c(OC)c3)CC2)c1 | -2.7 | x | -11 | 4 | 1
O=C(CN1CCN(CCC(=O)Nc2ccccc2F)CC1)Nc1ccc(F)cc1 | x | -4% | 2 | 3 | -15
CCCC(=O)Nc1ccc(C(=O)NNC(=O)c2ccccc2Br)cc1 | -3.3 | -4% | -12 | 8 | -29
COc1ccc(NC(=S)Nc2ccc(OCc3ccccc3)cc2)cc1OC | 1.6 | -9% | 47 | -9 | -41
COc1ccc(/C=C(/NC(=O)c2cccc([N+](=O)[O-])c2)C(=O)O)cc1OC | -5.8 | -4% | 2 | 3 | x
COc1ccc(-c2noc(CSc3ccc(C)cc3)n2)cc1 | x | -6% | -6 | 9 | 4
COc1ccc(-c2ccc(C#N)c(SCC(=O)NCc3ccco3)n2)cc1OC | -2.0 | 0% | -4 | x | x
Cc1[nH]c2ccccc2c1C(=O)C(=O)NCCC1=CCCCC1 | -0.4 | 2% | -1 | -16 | -13
Cc1ccccc1N1C(=O)CC(N(O)c2ccccc2)C1=O (stereo not given) | -5.3 | -6% | -2 | 4 | 29
O=C(CCc1ccccc1)Nc1ccc(NC(=O)c2ccco2)cc1 | -1.2 | -3% | -1 | -1 | -27 | Arbovirus inh repeat=5
CCCCCCOc1ccc(OC(=O)c2cccnc2)cc1 | -0.6 | u | 96 | -32 | 7
Cc1ccc(-c2csc(NC(=O)C[n+]3cc(-c4ccccc4)n4c3CCC4)n2)cc1 | 7.2 | 76% | 82 | x | x
O=C(O)COc1ccc(NC(=O)c2ccco2)cc1 | 0.3 | -5% | -4 | 1 | -13

The last 2 entries of the part above lead into the next.
SMILES | RecA splice inh | Mtb growth | Mtb betalactam | Arbovirus inh | YopH PTP inh | others
Cc1ccc(-c2csc(NC(=O)C[n+]3cc(-c4ccccc4)n4c3CCC4)n2)cc1 | 7.2 | 76% | 82 | x | x
O=C(O)COc1ccc(NC(=O)c2ccco2)cc1 | 0.3 | -5% | -4 | 1 | -13
Nc1n[nH]c(C2CC2)c1N=Nc1ccc(Cl)cc1 | 4.7 | 2% | 91 | x | x
N#CC(=C1CCCC1)c1nc(-c2cc3ccccc3oc2=O)cs1 | -3.9 | 1% | 10 | -1 | -50
COc1ccc(OC)c(CCNC(=O)C2CCN(c3ncnc4c3nc3n4CCCCC3)CC2)c1 | 0.0 | x | -9 | x | x
CCc1ccccc1NS(=O)(=O)c1c(C(=O)N2CCCCCC2)c(C)n(C)c1C | -1.4 | x | 7 | x | x
COc1ccc(N=N/C(=C\O)C(=O)c2cccs2)cc1 | -3.3 | 7% | 1 | 4 | x
Cc1c(C(=O)O)cc(-c2ccccc2)n1Cc1ccccc1 | 1.1 | x | -3 | x | x
COc1ccc(C(=O)C2CCCN(S(=O)(=O)N(C)C)C2)c(C)c1 (stereo not given) | -0.4 | x | -4 | x | x
Cc1ccc(C(=O)N2CCCN(c3nc4cc5c(cc4cc3C#N)OCO5)CC2)cc1 | -213 | x | -5 | x | x
CC(C1CC1)N(Cc1ccccc1)C(=S)Nc1ccccc1Cl (stereo not given) | 0.8 | 7% | -4 | 14 | x
COc1ccccc1C(=O)NCC(=O)N/N=C/c1cn[nH]c1-c1ccccc1 | -1.7 | 4% | -5 | -6 | x
Cn1cc([N+](=O)[O-])c(C(=O)NC2CCCCCC2)n1 | -3.4 | x | -1 | x | x
O=S(=O)(c1ccc(Br)cc1)N1CCN(c2ccc3nnc(-c4ccccc4)n3n2)CC1 | 1.6 | 41% | 2 | -18 | -31
CCC(=O)N1CCc2cc(S(=O)(=O)CCC(=O)NCc3ccccc3OC)ccc21 | -0.6 | x | -2 | x | x

An excerpt (hit frequency here may not be typical).
